# Source: PubChem (National Center for Advancing Translational Sciences (NCATS))
# ERK AVP block = qHTS Assay for Inhibitors of the ERK Signaling Pathway using a Homogeneous Screening Assay; HEK293-V1b, vasopressin-stimulated pERK AlphaScreen; Potency, µM (series often up to 57.5 µM), for the others: at the top dose activity, negative = inhibition, usual class: inhibitors; 0.99% of 72,000 active; AID 995, 2007; note: potency is the fitted concentration of half-maximal effect; % is set by controls: 0 for no effect and ±100 for the full control effect; nearly all actives have a fitted effect of over 55% in size
#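 HEK293 cells stably expressing V1b receptor, seeded overnight in 1% FBS, were treated with compounds for 30 min at 37C, then stimulated 5 min with 25 nM vasopressin; phospho-ERK read by AlphaScreen SureFire after lysis.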
# Tau fil binding = qHTS Assay for Tau Filament Binding; Microtubule-associated protein tau (Homo sapiens), P10636; recombinant tau filaments, thioflavin S fluorescence, 15 h; filaments grown with octadecylsulfate alongside compound; Potency, µM (titrated, usually from 57.1 µM), without a hit: at the top dose activity change, negative = inhibition; 2% of 71,000 active; AID 596, 2007;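 note: potency is the fitted concentration of half-maximal effect; % is set by controls: 0 for no effect and ±100 for the full control effect; actives lower thioflavin S fluorescence by blocking filaments or displacing dye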
#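 ThS-based fibril read: tau 1 uM final, inducer ODS 30 uM final, 37 C for 15 h, ex 450/em 510 nm.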
# USP2a inhib = qHTS Assay for Inhibitors of Ubiquitin-specific Protease USP2a. USP2a enzymatic assay, qHTS inhibition. Potency, µM (top dose mostly 38.3 µM), for the others: at the top dose activity change, negative = inhibition, usual class: inhibitors. 0.1% of 60,000 active. AID 927, 2007;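 note: potency is the fitted concentration of half-maximal effect; nearly all actives have a fitted effect of over 60% in size; plate controls were DMSO for no effect and NEM full inhibition control for full effect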
# Target sequence (O75604 whole entry, looked up): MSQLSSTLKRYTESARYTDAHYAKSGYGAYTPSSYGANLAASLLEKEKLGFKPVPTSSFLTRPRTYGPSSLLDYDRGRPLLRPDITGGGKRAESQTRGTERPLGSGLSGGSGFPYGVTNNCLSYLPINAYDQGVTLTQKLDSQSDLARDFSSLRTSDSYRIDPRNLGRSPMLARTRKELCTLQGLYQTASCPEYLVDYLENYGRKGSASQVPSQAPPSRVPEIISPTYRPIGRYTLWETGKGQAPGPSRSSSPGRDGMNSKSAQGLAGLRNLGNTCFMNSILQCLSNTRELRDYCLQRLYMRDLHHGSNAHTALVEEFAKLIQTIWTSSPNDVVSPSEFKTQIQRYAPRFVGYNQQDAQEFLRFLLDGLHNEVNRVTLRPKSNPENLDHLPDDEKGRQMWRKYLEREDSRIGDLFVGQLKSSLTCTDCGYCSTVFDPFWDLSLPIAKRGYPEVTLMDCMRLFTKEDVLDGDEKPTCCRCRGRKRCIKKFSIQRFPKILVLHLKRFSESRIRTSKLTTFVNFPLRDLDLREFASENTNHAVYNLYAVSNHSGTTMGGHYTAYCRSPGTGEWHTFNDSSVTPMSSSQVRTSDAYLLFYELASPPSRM
#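 20 nM USP2 core + cpd, 30 min RT; add 20 nM Ub-PLA2/20 uM NBD C6-HPC; read Ex460/Em535 at 0 h and 2.5 h. Normalized to NEM; qHTS curve fit/classification.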
# Caspase-1 inhib = qHTS Assay for Allosteric/Competitive Inhibitors of Caspase-1; Potency, µM (titrated, usually from 57.5 µM), inactives show top-dose activity change, negative = inhibition, most hits filed as inhibitors; P29466; AID 900, 2007; Caspase-1 enzyme, Ac-WEHD-AFC fluorogenic rate; 0.03% of 75,000 active;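 note: potency is the fitted concentration of half-maximal effect; plate controls were vehicle for no effect and no substrate for full effect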
# BRCT PPI red = qHTS Assay for Inhibitors of BRCT-Phosphoprotein Interaction (Red Fluorophore); Breast cancer type 1 susceptibility protein (Homo sapiens), P38398; BRCT-phosphopeptide binding, red fluorescence polarization; Potency, µM (series often up to 76.9 µM), for the others: at the top dose activity change, negative = inhibition, actives largely listed as inhibitors; 0.03% of 75,000 active; note: % is set by controls: 0 for no effect and ±100 for the full control effect
#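 Rhodamine-labelled pBACH1 10-mer (100 nM) bound to BRCT domain (100 nM) at pH 7.3; compounds incubated 12 min room temperature, polarization read. Free peptide defines full inhibition; unlabelled decapeptide titrated as control.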
# CRE Fsk mod = Cell signaling CRE-BLA (Fsk stim); Potency, µM (highest dose often 38.2 µM), inactives show at the top dose activity change, negative = inhibition, hits mostly activators; CHO CRE-bla reporter (cAMP response element driving beta-lactamase), forskolin EC10, beta-lactamase ratio; 2.5% of 71,000 active; active = well fitted activation curve with a large enough effect in the signal ratio, with a control signal flat, not every such curve was filed as active; inconclusive = small, poorly fitted or top-dose-only effect, or effect the other way, or a change in a side signal; the % refers to the signal ratio; note: potency is the fitted concentration of half-maximal effect; % of control where 0% means no effect
#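 AC50 values, positive or negative, reflect shifts in EC10 NKH 477-induced CRE-bla reporter activity in CHO cells. Incubation lasted 3 h at 37 °C before CCF4 substrate (2 h, room temperature) and ratiometric 460/530 nm reading.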
# BRCT inh green = qHTS Assay for Inhibitors of BRCT-Phosphoprotein Interaction (Green Fluorophore); 0.05% of 75,000 active; AID 875, 2007; Breast cancer type 1 susceptibility protein (Homo sapiens), P38398; BRCA1 BRCT-phosphopeptide binding, green fluorescence polarization; Potency, µM (doses to about 76.9 µM), for inactives: top-dose activity change, negative = inhibition, actives largely listed as inhibitors;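 note: potency is the fitted concentration of half-maximal effect; plate controls were peptide without protein for full effect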
#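 Compounds were incubated for 12 min at room temperature with a complex of 100 nM fluorescein-tagged pBACH1 decapeptide and 250 nM His-tagged BRCT protein. Buffer was phosphate pH 7.3 with EDTA, DTT and Tween 20. Disruption of binding lowers the polarization signal.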
# Casp7 inh = qHTS Assay for Allosteric/Competitive Inhibitors of Caspase-7; 0.02% of 75,000 active; recombinant caspase-7, Ac-DEVD-AFC fluorescence rate; Potency, µM (titrated, usually from 57.5 µM), for inactives: at the highest dose activity change, negative = inhibition, usual class: inhibitors; P55210; active = well fitted inhibition curve with a large enough effect in the main read-out, with a control signal flat, not every such curve was filed as active; inconclusive = small, poorly fitted or top-dose-only effect, or a change in a side signal; note: potency is the fitted concentration of half-maximal effect; % of control where 0% means no effect
# Target sequence (P55210 24-198 limits assumed): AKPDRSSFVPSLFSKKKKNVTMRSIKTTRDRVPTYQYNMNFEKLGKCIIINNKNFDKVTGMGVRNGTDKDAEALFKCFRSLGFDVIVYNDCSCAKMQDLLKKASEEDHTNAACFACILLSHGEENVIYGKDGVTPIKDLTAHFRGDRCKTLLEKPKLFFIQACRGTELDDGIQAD
# Target sequence (P55210 207-303 limits assumed): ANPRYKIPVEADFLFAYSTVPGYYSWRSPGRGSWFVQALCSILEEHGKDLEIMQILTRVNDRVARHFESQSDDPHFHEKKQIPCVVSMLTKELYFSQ
# An asterisk follows results filed as active; ? = inconclusive; . = not tested or not shown; & = joins results of further samples; [ ] = remark or other dose. Unless noted, calls come from the whole dose curve; as a rule, active = well fitted curve in the direction sought with a large enough effect; inconclusive = small, poorly fitted or top-dose-only effect, or another doubt; inactive = no such curve, though single readings can be large; an effect the other way counts as inactive or inconclusive.
SMILES,ERK AVP block,Tau fil binding,USP2a inhib,Caspase-1 inhib,BRCT PPI red,CRE Fsk mod,BRCT inh green,Casp7 inh
c1coc(-c2nc(-c3ccncc3)no2)c1,-27%,11%,4%,0%,-0.8%,?,-0.9%,1%
CC(CN(C)C)CN1c2ccccc2Sc2ccccc21 (stereo not given),22%,.,-8%,1%,-0.6%,.,-1.5%[3.08 µM],2%
COc1ccccc1-c1noc(-c2ccccc2)n1,1%,-9%,1%,2%,-3.6%,-10%,-0.3%,3%
COc1cc2nc(N3CCN(C(=O)[C@@H]4CCCO4)CC3)nc(N)c2cc1OC,2%[25.7 µM],3%[25.6 µM],-8%[17.1 µM],-1%[25.7 µM],0.6%[34.4 µM],12%[17.1 µM],1.1%[34.4 µM],0%[25.7 µM]
NC(N)=NN=Cc1c(Cl)cccc1Cl,-7%,?,-8%[17.1 µM],-1%,0.5%,-5%,-1.4%,3%
CC(C(=O)O)c1cccc(Oc2ccccc2)c1 (stereo not given),9%,.,-11%,2%,0.0%,.,-1.1%[3.08 µM],-2%
O=c1n(CCCN2CCN(c3cccc(Cl)c3)CC2)nc2ccccn12,9%,11%[25.6 µM],12%,0%,-1.5%,-7%[17.1 µM],-2.2%[3.08 µM],0%
CN(C)CCOC(c1ccccc1)c1ccccc1 (tested in a mixture with another compound),5%,-6%,-4%,3%,1.2%,-13%,-1.5%[3.08 µM],-2%
C[C@@H]1C[C@@H]2[C@H]3CCC4=CC(=O)C=C[C@]4(C)[C@]3(F)[C@@H](O)C[C@@]2(C)[C@@]1(O)C(=O)CO,7%&17%,-28%&12%,5%,-2%&-3%,0.0%&1.3%,?,-0.9%&-2.9%,0%&1%
COc1ccc(-c2nc(-c3ccccc3)no2)c(OC)c1,-3%,33%,-4%,0%,-2.6%,-12%,0.9%,-1%
COC(=O)[C@H]1C(OC)[C@@H](OC(=O)c2cc(OC)c(OC)c(OC)c2)C[C@@H]2CN3CCc4c([nH]c5cc(OC)ccc45)[C@H]3C[C@H]21 (stereo not given in full),-10%,.,-18%,?,-2.2%,.,0.0%,?
Cc1nn(-c2ccccc2)c2[nH]c(=O)c(CNCCN3CCOCC3)cc12,14%,1%,-2%,0%,0.4%,8%,-0.9%,-3%
CCOc1ccc(NC(=O)c2cnsn2)cc1,-3%,-21%,-2%,-1%,0.9%,-4%,0.0%,-1%
COc1ccccc1NC(=O)Nc1ccc2c(c1)OCCO2,-21%,-2%,1%,-2%,0.2%,?,-1.1%,-2%
Clc1cccc(Cl)c1NC1=NCCN1,1%,?,-13%[17.1 µM],3%,-0.8%,?,2.4%,2%
COc1ccc(C2NC(c3ccc(OC)c(OC)c3OC)C(C)C(=O)C2C)c(OC)c1OC (stereo not given),-3%,13%,8%,-2%,0.0%,7%,-1.5%,-1%
C/C=C1/C(=O)C[C@H]2[C@@H]3CCC4=CC(=O)CC[C@]4(C)[C@H]3CC[C@]12C,?,91%,.,2%,-5.5%,-19%,3.3%,-3%
CCCCOc1ccccc1-c1cc(C(=O)O)[nH]n1,4%,4%,-17%,0%,-2.3%,?,-2.9%,2%
COc1ccc(Cl)cc1C(=O)NCCc1ccc(S(=O)(=O)NC(=O)NC2CCCCC2)cc1,4%,?,7%,6%,-2.3%,9%,-5.6%[3.08 µM],2%
O=C(O)c1cc(-c2ccccc2Cl)n[nH]1,-13%,4%,-10%,1%,0.3%,-4%,-0.2%,-1%
CC1(C)S[C@@H]2[C@H](NC(=O)C3(N)CCCCC3)C(=O)N2[C@H]1C(=O)O,6%[25.7 µM],-7%[25.6 µM],8%[17.1 µM],1%[25.7 µM],0.0%[34.4 µM],-1%[17.1 µM],-2.4%[34.4 µM],0%[25.7 µM]
CN(C)CCCN1c2ccccc2Sc2ccc(Cl)cc21,?,5µM*,-5%,3%,0.9%,-8%[17.1 µM],-1.7%[3.08 µM],1%
CNCC(O)c1ccc(O)c(O)c1 (stereo not given),-28%,.,-1%,1%,-1.9%,.,-1.9%[3.08 µM],-2%
O=C=Nc1ccc(Cc2ccc(N=C=O)cc2)cc1 (tested in a mixture with another compound),14%[11.5 µM],3%[11.4 µM],.,1%[11.5 µM],1.7%[15.4 µM],-1%[7.6 µM],-1.1%[15.4 µM],0%[11.5 µM]
c1ccc(-c2noc(-c3ccco3)n2)nc1,-2%,2%,-2%,0%,-0.9%,3%,0.4%,-1%
COc1ccc(CCN2CCC(Nc3nc4ccccc4n3Cc3ccc(F)cc3)CC2)cc1,2%,101%[25.6 µM],43%[activator],-2%,1.1%,-19%[17.1 µM],0.2%[3.08 µM],-1%
CC(C)(C)NC[C@H](O)COc1cccc2c1CCCC2=O,40%&16%[25.7 µM],0%&-6%[25.6 µM],0%&-8%[17.1 µM],-3%&2%[25.7 µM],-1.6%&0.4%[34.4 µM],-6%&-6%[17.1 µM],-3.4%&-0.6%[34.4 µM],-2%&-3%[25.7 µM]
COc1cccc(OC)c1OCCOCCn1cnc2ccccc2c1=O,-6%,7%,2%,-3%,-2.6%,14%,-0.8%,-1%
COc1cc2nc(N3CCN(C(=O)C4CCCO4)CC3)nc(N)c2cc1OC (stereo not given),?,26%,-1%,1%,-0.6%,8%,-1.7%,0%
CN(C)CCCNc1cc(Cl)c(S(=O)(=O)N2CCCCC2)cc1C(=O)O,12%,8%,-1%,-1%,1.2%,-7%,-5.2%,1%
CC1=C(CC(=O)O)c2cc(F)ccc2/C1=C\c1ccc(S(C)(=O)=O)cc1,?,5%,-4%,1%,-1.4%,6%,-2.2%,0%
Cc1ccc(OCc2nnc(SCC(=O)Nc3cc(C)on3)n2C)cc1,-3%,2%,-6%,1%,1.1%,?,0.9%,6%
CN(C)CCCN1c2ccccc2CCc2ccc(Cl)cc21,-3%,-47%,5%,-17%,-0.1%,?,-2.6%,1%
CC(C)C(C(=O)N1CCOCC1)N1C(=O)c2ccccc2C1=O (stereo not given),8%,-4%,3%,3%,-0.7%,-3%,-1.5%,0%
CC1O[C@@H](O[C@@H]2C(O)C[C@H](O[C@@H]3C(O)C[C@@H](OC4CC[C@@]5(C)C6CC(O)[C@@]7(C)C(C8=CC(=O)OC8)CC[C@@]7(O)C6CC[C@@H]5C4)OC3C)OC2C)CC(O)[C@H]1O (stereo not given in full),6%,.,6%,1%,0.3%,.,-0.4%[3.08 µM],1%
CCCC1OC2CC3C4CCC5=CC(=O)C=CC5(C)C4C(O)CC3(C)[C@]2(C(=O)CO)O1 (stereo not given in full),-12%,.,17%,-3%,-0.3%,.,-0.5%[3.08 µM],-1%
NCCCCC(NC(CCc1ccccc1)C(=O)O)C(=O)N1CCCC1C(=O)O (stereo not given),2%,.,-13%,0%,-0.6%,.,0.9%[3.08 µM],-1%
COC(=O)C1C2CC3c4[nH]c5cc(OC)ccc5c4CCN3CC2CC(OC(=O)c2cc(OC)c(OC)c(OC)c2)C1OC (stereo not given),-23%,.,.,-17%,0.0%,.,15%,-21%
CC(=O)c1ccc(NC(=O)CSc2nnc(-c3ccoc3C)n2Cc2ccccc2)cc1,-14%,13%,6%,0%,1.1%,-3%,-2.0%,1%
O=S1(=O)OC(c2ccc(O)cc2)(c2ccc(O)cc2)c2ccccc21,0%[11.5 µM],13%[11.4 µM],.,0%[11.5 µM],1.8%[15.4 µM],-1%[7.6 µM],1.5%[15.4 µM],-2%[11.5 µM]
CO[C@@]1(NC(=O)CSCC#N)C(=O)N2C(C(=O)O)=C(CSc3nnnn3C)CSC21 (stereo not given in full),16%,.,-13%,-4%,-1.4%,.,-1.8%[3.08 µM],-2%
CCC(=O)c1ccc2c(c1)N(CCCN(C)C)c1ccccc1S2,4%,?,10%,0%,-1.8%,4%,1.4%,0%
CCOC(=O)c1c(-c2ccccc2)nnn1-c1nc(OCC)nc(N2CCCCC2)n1,11%,75%,?,-3%,-1.2%,?,2.9%,-1%
CSc1ccc2c(c1)[C@H](N1CCN(C)CC1)Cc1ccccc1S2,-7%,-96%,17%[17.1 µM],-3%,2.4%,-9%,0.5%,-2%
Cc1ccc(-c2nn(-c3ccccc3)c3[nH]c(=O)c(CNCCN(C)C)cc23)cc1,-1%,-21%,16%,0%,0.4%,?,1.7%,4%
CCc1cc(C(N)=S)ccn1,-16%,-6%,-7%,-3%,1.4%,-13%,-2.1%,2%
O=C(COc1ccc(F)cc1)Nc1nccs1,.,-4%,.,-6%,-1.5%,-7%,3.0%,2%
O=C(Nc1ccc2oc(=O)ccc2c1)c1ccco1,7%,-2%,-6%,-1%,-2.6%,1%,-0.8%,-1%
Nc1ccn([C@H]2O[C@H](CO)[C@@H]3[O][Sn]([c]4ccccc4)([c]4ccccc4)[O][C@H]32)c(=O)n1,4%[11.5 µM],-5%[11.4 µM],.,2%[11.5 µM],1.0%[15.4 µM],-21%[7.6 µM],1.1%[15.4 µM],0%[11.5 µM]
CCn1c(Cc2ccccc2)nnc1SCC(=O)Nc1ccccc1,-11%,0%,3%,-2%,1.1%,0%,1.2%,1%
COc1ccc(-c2noc(-c3ccccc3F)n2)cc1,14%,25%,.,1%,-0.1%,-11%,0.8%,-2%
Cc1cccc(Nc2ccccc2)c1,0%,-10%,-11%,0%,-0.4%,-17%,-1.1%,-2%
N#Cc1cn(CC(=O)N2CCCC2)c2ccccc12,-5%,2%,-1%,-1%,-0.4%,-6%,-0.2%,3%

# This is a subset; the hit share may differ from the screen's.
